EPAC2 antag = human EPAC2 antagonism, validation; EPAC2 Rap1B BODIPY-GDP exchange, fluorescence; 1.7% of 16,000 active; Q8WZA2; AID 1645886; Potency, µM (doses to about 112 µM), for the others: top-dose activity, negative = inhibition, actives largely listed as inhibitors; active means well fitted inhibition curve with a large enough effect; inconclusive means small, poorly fitted or top-dose-only effect; inactive means no such curve, though single readings can be large or run the other way;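 further: 100% = activation by cAMP agonist control; nearly all actives have a fitted effect of over 40% in size; the record reuses the description of the EPAC1 agonist screen; inactives centre near -10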
Target sequence (Q8WZA2 whole entry, looked up): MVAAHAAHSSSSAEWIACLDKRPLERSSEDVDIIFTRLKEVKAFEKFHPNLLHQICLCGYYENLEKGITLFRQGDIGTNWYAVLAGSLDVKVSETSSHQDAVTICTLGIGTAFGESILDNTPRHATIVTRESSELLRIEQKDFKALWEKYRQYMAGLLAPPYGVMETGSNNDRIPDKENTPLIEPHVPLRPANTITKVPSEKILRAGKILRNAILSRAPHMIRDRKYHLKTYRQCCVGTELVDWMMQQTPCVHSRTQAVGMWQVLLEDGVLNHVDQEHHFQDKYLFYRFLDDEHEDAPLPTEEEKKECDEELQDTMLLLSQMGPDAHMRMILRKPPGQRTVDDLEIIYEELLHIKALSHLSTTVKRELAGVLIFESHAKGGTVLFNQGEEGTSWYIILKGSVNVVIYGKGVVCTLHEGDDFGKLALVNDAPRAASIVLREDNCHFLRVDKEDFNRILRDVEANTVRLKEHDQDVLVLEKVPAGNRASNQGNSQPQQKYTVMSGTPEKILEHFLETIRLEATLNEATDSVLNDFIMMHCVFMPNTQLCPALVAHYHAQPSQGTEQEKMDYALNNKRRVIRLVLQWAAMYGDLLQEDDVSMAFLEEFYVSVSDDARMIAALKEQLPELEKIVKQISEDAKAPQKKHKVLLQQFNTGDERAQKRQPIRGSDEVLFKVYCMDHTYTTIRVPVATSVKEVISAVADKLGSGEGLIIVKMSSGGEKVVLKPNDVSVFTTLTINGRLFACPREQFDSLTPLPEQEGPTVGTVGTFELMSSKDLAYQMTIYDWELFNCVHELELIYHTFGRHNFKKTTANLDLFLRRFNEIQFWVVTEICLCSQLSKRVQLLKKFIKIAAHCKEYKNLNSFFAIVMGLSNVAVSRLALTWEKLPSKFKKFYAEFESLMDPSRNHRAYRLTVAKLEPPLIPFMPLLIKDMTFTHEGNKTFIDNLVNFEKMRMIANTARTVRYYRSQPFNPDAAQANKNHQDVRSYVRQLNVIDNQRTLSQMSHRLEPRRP
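Fluorescent exchange read-out: 100 nM EPAC2 with 250 nM RAP1B–BODIPY-GDP and 50 uM GDP; BODIPY-GDP release lowers fluorescence. Read at 480/540 nm every 5 min for 30 min at room temperature; normalized to 6.5 mM cAMP.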
Starred values were filed as active, the others as inactive; & = joins results of further samples; [ ] = dose if it differs, or a comment. Potency means the concentration at half of the fitted maximal effect. This is a subset. The share of hits here may be higher or lower than overall.

CCCCCCCCCCCCCCCCCCOC[C@H](COP(=O)([O-])OCC[N+](C)(C)C)OC was read as EPAC2 antag -5%.
For O=C(Nc1ccccc1)N1CCC2(CC1)CCN(C(=O)c1cccc(F)c1)CC2 the results were EPAC2 antag -23%.
Screening COc1cc(CNc2nc(C)c(-c3ccn(C4Cc5ccccc5C4)n3)s2)cc2c1OCO2 returned EPAC2 antag -12%.
For NC1(C(=O)O)CC(C(=O)O)C1 (centres undefined) the results were EPAC2 antag -2%&-10%&-20%.
For CCN(CC)C(=O)/C(C#N)=C/c1cc(O)c(O)c([N+](=O)[O-])c1 the results were EPAC2 antag -27%.
Screening O=C(Nc1ccc(O)cc1)c1ccccc1O returned EPAC2 antag inconclusive.
`CCCC1CC(C(=O)N[C@H](C(C)O)C2OC(SC)[C@@H](O)C(O)C2O)N(C)C1` (some centres undefined) gave EPAC2 antag 7%.
For COCC(=O)N1CCC2(CCCN(c3cccc(-c4ccccc4)c3)C2)CC1 the results were EPAC2 antag inconclusive.
COc1cccc(-c2ccc3ncnc(NC4CCNCC4)c3c2)c1 was read as EPAC2 antag -5%.
`NCCS(=O)(=O)O` gave EPAC2 antag -10%&-25%&21%.
For CCCN1CCN(C(=O)c2cnn(-c3ncc4c(n3)-c3ccccc3CCC4)c2COC)CC1 the results were EPAC2 antag -5%.
Screening CC(C)C(C)/C=C/C(C)C1CCC2C3=CCC4CC(=O)CC[C@@]4(C)C3CC[C@]21C (some centres undefined) returned EPAC2 antag -8%.
Screening COC(=O)[C@@H]1CCCN1Cc1ccc2c(c1)CN(Cc1cccn1-c1ccccn1)CCO2 returned EPAC2 antag 27%.
For NC(Cn1ccc(=O)c(O)c1)C(=O)O (centres undefined) the results were EPAC2 antag -7%.
For CN(C)Cc1ccccc1 the results were EPAC2 antag 0%.
CCNc1ncc2nc(-c3ccc(Cl)cc3)c(=O)n(CCC#N)c2n1 was read as EPAC2 antag -15%.
Screening Cc1c(C(=O)NCC2(N3CCCCC3)CCCC2)cnn1-c1nccc(-c2ccccc2F)n1 returned EPAC2 antag -2%.
Screening Cc1oc(-c2ccccc2NC(=O)c2ccccc2)nc1CNC(=O)c1c(-c2ccccc2)noc1C returned EPAC2 antag inconclusive.
Brc1ccc([C@H]2CN3CCSC3=N2)cc1 was read as EPAC2 antag -16%.
For Nc1ncnc2c1nc(Br)n2C1CC(O)C(CO)O1 (centres undefined) the results were EPAC2 antag -6%.
For CCC(C)[C@H]1COCCS(=O)(=O)N1Cc1ccc(Cl)cc1Cl (some centres undefined) the results were EPAC2 antag 28µM*.
`CC(=O)Oc1cc(OC(C)=O)c2c(c1)OC(c1ccc(OC(C)=O)c(OC(C)=O)c1)C(OC(C)=O)C2` (centres undefined) gave EPAC2 antag -17%&-28%.
`CC(=O)OC1C[C@@]2(C)C(c3ccoc3)OC(=O)C3O[C@@]32[C@]2(C)C(OC(C)=O)CC3C(C)(C)C(OC(C)=O)CC(OC(C)=O)[C@@]3(C)C12` (some centres undefined) gave EPAC2 antag -10%.
`CN1[C@@H]2CCC[C@@H]1CC(NC(=O)c1nn(C)c3ccccc13)C2` (some centres undefined) gave EPAC2 antag 21%.
Screening COc1ncc2nc(CCc3ccccc3)c(=O)n(CCC#N)c2n1 returned EPAC2 antag -22%.
For CC(C(=O)O)c1ccc(/C=C2\CCCCC2=O)cc1 (centres undefined) the results were EPAC2 antag -1%.
Screening CC(=O)N1CCC2(CC1)CN(C(=O)Nc1cccc(C#N)c1)C2 returned EPAC2 antag -22%.
For COc1ccc(CN2CCC3(CC2)c2ccccc2[C@@H](NC(=O)c2ccsc2)[C@@H]3OC)cc1O the results were EPAC2 antag inconclusive.
Screening O=[N+]([O-])O[C@@H]1CO[C@H]2[C@@H]1OC[C@@H]2O returned EPAC2 antag -3%.
Screening CCOc1ccc(N=Nc2ccc(N)cc2N)cc1 returned EPAC2 antag -28%.
COC(=O)[C@@H]1CCCN1C(=O)c1c(OC)cc(=O)n2c1CCN(Cc1ccc3c(c1)OCCO3)CC2 was read as EPAC2 antag -25%.
For COc1cccc(-c2ccc3ncnc(NCCc4c[nH]c5ccc(OC)cc45)c3c2)c1 the results were EPAC2 antag -29%.
Cc1ccc(CN2CCOc3ccc(C(C)(O)COc4ccccc4)cc3C2)o1 (centres undefined) was read as EPAC2 antag 2%.
Screening CCCCCC(N)=O returned EPAC2 antag 2%.
`C[C@](N)(C(=O)O)c1ccc(-c2nn[nH]n2)cc1` gave EPAC2 antag -20%.
`CCCCCCCCCCCCC(O)C(=O)O` (centres undefined) gave EPAC2 antag -40%[11.4 µM].

Structures above containing a furan ring, fused or not (two):
`CC(=O)OC1C[C@@]2(C)C(c3ccoc3)OC(=O)C3O[C@@]32[C@]2(C)C(OC(C)=O)CC3C(C)(C)C(OC(C)=O)CC(OC(C)=O)[C@@]3(C)C12` (some centres undefined) gave EPAC2 antag -10%.
Cc1ccc(CN2CCOc3ccc(C(C)(O)COc4ccccc4)cc3C2)o1 (centres undefined) was read as EPAC2 antag 2%.

More entries follow:
`Cc1cc(-c2ccnc(-n3ncc(C(=O)N4CCCCC4c4cccnc4)c3C3CC3)n2)c(C)s1` (centres undefined) gave EPAC2 antag -11%.
`O=C1CCN(Cc2ccccc2)S(=O)(=O)c2c(F)cc(F)cc21` gave EPAC2 antag -2%.
For Cc1noc(C)c1C(=O)N1CCC2(CCCN(C(=O)Nc3cccc(F)c3)C2)CC1 the results were EPAC2 antag -12%.
For COc1cccc(Cn2c(=O)cnc3cnc(Nc4cccc(OC)c4)nc32)c1 the results were EPAC2 antag -23%.
`CC(C)NC(=O)N1CCCC2(CCN(C(=O)c3cccc(F)c3)CC2)C1` gave EPAC2 antag -15%.
For CC(C)=CCCC1=CC[C@H](C(=O)O)[C@H](C(=O)O)C1 the results were EPAC2 antag 11%.
`CC(C)(C)NC(=O)[C@H]1CC[C@H]2[C@@H]3CC=C4C=C(C(=O)O)CC[C@]4(C)[C@H]3CC[C@]12C` gave EPAC2 antag -5%.
NCc1ccccc1CC(=O)N[C@@H]1C(=O)N2C(C(=O)O)=C(CSc3nnnn3CC(=O)O)CS[C@H]12 was read as EPAC2 antag 1%[56.6 µM].
CSc1ncccc1C(=O)NCCN1Cc2ccccc2OC(c2ccccc2F)C1 (centres undefined) was read as EPAC2 antag inconclusive.
For C=CS(=O)(=O)N(Cc1ccccc1Br)[C@H](CO)Cc1ccccc1 the results were EPAC2 antag 35µM*.
Screening N[C@@H](Cc1cnc[nH]1)C(=O)O returned EPAC2 antag -17%&15%.
CCC[C@H]1COCCS(=O)(=O)N1Cc1cccc(F)c1 was read as EPAC2 antag inconclusive.
CC(C)C[C@@H](CO)N1CCN(Cc2cccc(C#N)c2)CCC1=O was read as EPAC2 antag -10%.
CN(C)C(=O)c1ccc(-c2cc(N(C)Cc3ccco3)ncn2)cc1 was read as EPAC2 antag -10%.
`CCNc1ncc2nc(-c3cn(C)c4ccccc34)c(=O)n(-c3ccc(OC)cc3)c2n1` gave EPAC2 antag -2%.
`COc1cc(=O)n2c(c1C(=O)N(C)Cc1nccs1)CCN(Cc1cccc(F)c1F)CC2` gave EPAC2 antag 5%.
Screening COc1cccc(-c2nccc(NCc3cccc(C)c3)n2)c1 returned EPAC2 antag inconclusive.
`CN(C)c1cc(NC(=O)CNC(C)(C)C)c(O)c2c1C[C@@H]1C[C@H]3[C@H](N(C)C)C(=O)C(C(N)=O)=C(O)[C@@]3(O)C(=O)C1=C2O` gave EPAC2 antag 15%.
For O=Cc1ccc(Cl)cc1 the results were EPAC2 antag 3%.
CC1(C)OC2CC3C4CCC5=CC(=O)C=C[C@@]5(C)[C@]4(F)C(O)C[C@@]3(C)[C@]2(C(=O)CO)O1 (some centres undefined) was read as EPAC2 antag -11%.
CNC(=O)[C@H](Cc1c[nH]c2ccccc12)NC(=O)[C@@H](CC(=O)NO)CC(C)C was read as EPAC2 antag -11%[151 µM].
Screening N#Cc1cccc(-c2cc(NCc3ccccc3)ncn2)c1 returned EPAC2 antag -29%.
Screening C[C@H]1CN(CCc2ccccc2)C(=O)[C@@H]1CC(=O)NCc1ccccc1 returned EPAC2 antag 17%.
For COc1ccccc1-c1ccc2ncnc(Nc3ccccc3)c2c1 the results were EPAC2 antag inconclusive.
COC(C)C(C(=O)OCC1=CCN2CC[C@H](O)[C@@H]12)C(C)C (some centres undefined) was read as EPAC2 antag 29%.
Screening CCCCC/C=C\C\C=C/C=C/C=C/[C@@H](SC[C@H](NC(=O)CC[C@H](N)C(=O)O)C(=O)NCC(=O)O)[C@@H](O)CCCC(=O)O returned EPAC2 antag 0%[1.17 µM].
COc1ccccc1-c1ccc2ncnc(N3CCN(C)CC3)c2c1 was read as EPAC2 antag -11%.
COc1ccccc1CN1CCCC2(CCN(C(=O)c3csnn3)CC2)C1 was read as EPAC2 antag -20%.
Screening COc1ccccc1N1CCN(c2nc(CNC(=O)C3CCOC(C)(C)C3)nc3ccccc23)CC1 (centres undefined) returned EPAC2 antag inconclusive.
Screening O=C1CCC[C@@H]2Cc3nc4cc5c(cc4cc3[C@@H]3CCN1[C@H]23)OCO5 returned EPAC2 antag -32%.
Screening CC(=O)Nc1cc(C(=O)N2CCSCC2)cc2ncn(CCc3ccccn3)c12 returned EPAC2 antag -12%.
For COC(=O)[C@@H]1CCCN1Cc1ccc2c(c1)CN(Cc1ccccc1C)CCO2 the results were EPAC2 antag 8%.
Screening OC(CN1CCOCC1)c1ccccc1 (centres undefined) returned EPAC2 antag -4%.
COc1ccc(CNc2cc(-c3ccccc3C)ncn2)c(OC)c1 was read as EPAC2 antag inconclusive.
Screening CC1(C)OC(=O)NC1=O returned EPAC2 antag 6%.
`Cc1noc(C)c1-c1cc(NCc2cccnc2)ncn1` gave EPAC2 antag -28%.
For CN(CCc1ccc(Cl)c(Cl)c1)CCN1CCCC1 the results were EPAC2 antag 3%&-13%.
`COc1cccc(-c2ccnc(-n3ncc(C(=O)NCC(C)(C)CN(C)C)c3C)n2)c1` gave EPAC2 antag -29%.
Screening CN1CCN(c2ncc3nc(-c4cccc(C#N)c4)c(=O)n(Cc4ccc(F)cc4)c3n2)CC1 returned EPAC2 antag -4%.
Screening O=c1cc(-c2cccc(O)c2)oc2cccc(O)c12 returned EPAC2 antag -11%.
For O=C(Nc1ccccc1)N1CCCC2(CCN(C(=O)c3cnccn3)CC2)C1 the results were EPAC2 antag -14%.
For CN(C)c1ccc(C=O)c(O)c1 the results were EPAC2 antag inconclusive.
Screening COC1=C(OC)C(=O)C(CC=C(C)CCC=C(C)CCC=C(C)CCC=C(C)CCC=C(C)CCC=C(C)CCC=C(C)CCC=C(C)CCC=C(C)CCC=C(C)C)=C(C)C1=O returned EPAC2 antag -3%.
Screening CC(=O)OC1CC[C@@]2(C)C3CC[C@@]4(C)C(CC5O[C@@]6(CCC(C)CO6)C(C)C54)C3CC[C@@H]2C1 (some centres undefined) returned EPAC2 antag -14%.
c1cncc(CNc2nc(-c3ccc4c(c3)OCO4)nc3ccccc23)c1 was read as EPAC2 antag -20%.
For CCOc1ccccc1CN1CCCC(c2nc(C)ncc2-c2ccc(F)cc2)C1 (centres undefined) the results were EPAC2 antag -8%.
For CC(C)(CNC(=O)c1cnn(-c2nccc(-c3ccccc3F)n2)c1C1CC1)N1CCOCC1 the results were EPAC2 antag -4%.
Screening O=C1C2=C(S[C@@H]3O[C@H](CO)[C@@H](O)[C@H](O)[C@H]3O2)C(=O)c2ccccc21 returned EPAC2 antag -13%.
O=C(Cn1ccnc1[N+](=O)[O-])NCc1ccccc1 was read as EPAC2 antag -13%.
CC(C)CN1CCCC2(CCN(C(=O)c3cc(C(F)(F)F)cc(C(F)(F)F)c3)CC2)C1 was read as EPAC2 antag inconclusive.
For CN(C)c1ncc2nc(-c3cccc(C#N)c3)c(=O)n(C[C@H]3CCCO3)c2n1 the results were EPAC2 antag -24%.
Screening O=c1c(CCc2ccccc2)nc2cnc(N3CCOCC3)nc2n1C[C@H]1CCCO1 returned EPAC2 antag -3%.
For CCc1nc(N)nc(N)c1-c1ccc(Cl)cc1 the results were EPAC2 antag 23%&-16%.
`COc1cc(OC)cc(C(=O)N2CCCC(n3cc(C(=O)NCC(C)C)nn3)C2)c1` (centres undefined) gave EPAC2 antag inconclusive.
`COC(=O)C(C)(N)Cc1ccc(O)cc1` (centres undefined) gave EPAC2 antag -11%.
Cc1ccccc1-c1ccc2ncnc(NC3CC3)c2c1 was read as EPAC2 antag -18%.
For COc1ccc(OC)c(-c2ccnc(-n3ncc(C(=O)NC(C)(C)CO)c3C3CC3)n2)c1 the results were EPAC2 antag -5%.
`Cc1c(C)c2c(c(C)c1OC(=O)CCC(=O)OCCO)CC[C@@](C)(CCC[C@H](C)CCC[C@H](C)CCCC(C)C)O2` gave EPAC2 antag 43%[activator].

Structures from the list above containing a COOH group (ten):
For NC1(C(=O)O)CC(C(=O)O)C1 (centres undefined) the results were EPAC2 antag -2%&-10%&-20%.
For NC(Cn1ccc(=O)c(O)c1)C(=O)O (centres undefined) the results were EPAC2 antag -7%.
For CC(C(=O)O)c1ccc(/C=C2\CCCCC2=O)cc1 (centres undefined) the results were EPAC2 antag -1%.
`C[C@](N)(C(=O)O)c1ccc(-c2nn[nH]n2)cc1` gave EPAC2 antag -20%.
`CCCCCCCCCCCCC(O)C(=O)O` (centres undefined) gave EPAC2 antag -40%[11.4 µM].
For CC(C)=CCCC1=CC[C@H](C(=O)O)[C@H](C(=O)O)C1 the results were EPAC2 antag 11%.
`CC(C)(C)NC(=O)[C@H]1CC[C@H]2[C@@H]3CC=C4C=C(C(=O)O)CC[C@]4(C)[C@H]3CC[C@]12C` gave EPAC2 antag -5%.
NCc1ccccc1CC(=O)N[C@@H]1C(=O)N2C(C(=O)O)=C(CSc3nnnn3CC(=O)O)CS[C@H]12 was read as EPAC2 antag 1%[56.6 µM].
Screening N[C@@H](Cc1cnc[nH]1)C(=O)O returned EPAC2 antag -17%&15%.
Screening CCCCC/C=C\C\C=C/C=C/C=C/[C@@H](SC[C@H](NC(=O)CC[C@H](N)C(=O)O)C(=O)NCC(=O)O)[C@@H](O)CCCC(=O)O returned EPAC2 antag 0%[1.17 µM].

Source: PubChem BioAssay (National Center for Advancing Translational Sciences (NCATS))
